# Lassa entry inh = qHTS for Inhibitors of binding or entry into cells for Lassa Virus. Potency, µM (highest dose often 37.9 µM), for inactives: at the top dose activity change, negative = inhibition, usual class: inhibitors. AID 540256, 2011. 300,000 compounds, 1.2% hits. Lassa virus pseudotype entry inhibition, cell reporter; control for the full effect not named in the record; active means well fitted inhibition curve with a large enough effect; inconclusive means small, poorly fitted or top-dose-only effect, or effect the other way; inactive means flat fitted curve, though single readings scatter; tested in HEK293 cells; further: on the % scale 0 is the no-effect control and ±100 the full control effect; nearly all actives have a fitted effect of over 50% in size; luciferase read-out
# Cruzain inh noDet = qHTS Assay for Promiscuous and Specific Inhibitors of Cruzain (without detergent). Cruzipain (Trypanosoma cruzi), P25779. purified cruzain, Z-FR-AMC fluorescence, no detergent. Potency, µM, without a hit: max response, negative = inhibition, most hits filed as inhibitors. 200,000 compounds, 2.3% hits; active means well fitted curve in the direction sought with a large enough effect; inconclusive means small, poorly fitted or top-dose-only effect, or another doubt; inactive means no such curve, though single readings can be large; an effect the other way counts as inactive or inconclusive;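 further: plate controls were enzyme without inhibitor for no effect and buffer without enzyme for full effect; nearly all actives have a fitted effect of over 40% in size; top concentration of the series not given in the record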
# Target sequence (P25779 123-467 limits assumed): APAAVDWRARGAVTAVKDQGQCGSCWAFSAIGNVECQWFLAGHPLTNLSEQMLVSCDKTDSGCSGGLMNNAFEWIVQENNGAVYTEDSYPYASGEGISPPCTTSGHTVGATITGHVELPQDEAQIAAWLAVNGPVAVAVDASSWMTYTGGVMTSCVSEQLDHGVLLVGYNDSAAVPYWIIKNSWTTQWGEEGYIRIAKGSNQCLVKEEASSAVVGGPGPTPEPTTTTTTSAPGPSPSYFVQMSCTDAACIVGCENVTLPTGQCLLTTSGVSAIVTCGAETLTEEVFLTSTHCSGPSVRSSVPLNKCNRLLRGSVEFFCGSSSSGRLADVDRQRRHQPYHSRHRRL
#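 Detergent-free condition (0.00005% Triton X-100) in acetate buffer pH 5.5 with DTT. 1.5 nM enzyme and compound were pre-mixed 15 min, then 2 uM Z-FR-AMC substrate added; reaction progress from fluorescence change between first and third reads (60 s).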
# SARS PLP yeast = qHTS of Yeast-based Assay for SARS-CoV PLP | S. cerevisiae expressing SARS-CoV PLpro, growth rescue; control for the full effect not named in the record | Potency, µM (top dose mostly 32.9 µM), for the others: top-dose activity, positive = growth rescue | 330,000 compounds, 0.19% hits | AID 485353, 2010; further: 0% is about no effect; nearly all actives have a fitted effect of over 55% in size; growth read by luminescence after 48 h
# 2A StopGo = High Throughput Screening for Foot and Mouth Disease Virus Antivirals; human cells with a luciferase reporter of 2A StopGo recoding; control for the full effect not named in the record; Potency, µM (highest dose often 57.9 µM), inactives show top-dose signal change, negative = less light; 410,000 compounds, 1.2% hits; AID 1159524, 2015; active = well fitted falling curve with a large enough effect; inconclusive = small, poorly fitted or top-dose-only effect; inactive = no such curve, though single readings can be large or run the other way; tested in HEK293T cells; further: on the % scale 0 is the no-effect control and ±100 the full control effect; nearly all actives have a fitted effect of over 45% in size; luciferase light after 4 h
# Cruzain Triton = qHTS Assay for Promiscuous and Specific Inhibitors of Cruzain (with detergent). Potency, µM, for the others: max response, negative = inhibition, most hits filed as inhibitors. Cruzipain (Trypanosoma cruzi), P25779. 200,000 compounds, 0.43% hits. purified cruzain, Z-FR-AMC fluorescence, 0.01% Triton; active means well fitted curve in the direction sought with a large enough effect; inconclusive means small, poorly fitted or top-dose-only effect, or another doubt; inactive means no such curve, though single readings can be large; an effect the other way counts as inactive or inconclusive;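 further: plate controls were neutral wells for no effect and buffer without enzyme for full effect; nearly all actives have a fitted effect of over 40% in size; top concentration of the series not given in the record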
#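 Cysteine protease activity tested under reducing, mildly acidic conditions (100 mM sodium acetate pH 5.5, 5 mM DTT) plus 0.01% Triton X-100. Cruzain 1.5 nM; substrate Z-FR-AMC 2 uM; 15 min compound preincubation at room temperature.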
# Marburg entry inh = qHTS for inhibitors of binding or entry into cells for Marburg Virus | Marburg virus pseudotyped entry inhibition, cell reporter; control for the full effect not named in the record; about a third of the inactives were read at about 46 µM | Potency, µM (top dose mostly 37.8 µM), inactives show at the top dose activity change, negative = inhibition, actives largely listed as inhibitors | 300,000 compounds, 1.8% hits; active = well fitted inhibition curve with a large enough effect; inconclusive = small, poorly fitted or top-dose-only effect, or effect the other way; inactive = flat fitted curve, though single readings scatter; tested in HEK293 cells; about a fifth of its hits are not listed in these tables; further: on the % scale 0 is the no-effect control and ±100 the full control effect; luciferase read-out
# NS1 function inh = qHTS Assay for Inhibitors of Influenza NS1 Protein Function. Potency, µM (doses to about 46.1 µM), inactives show at the highest dose activity, positive = more growth. S. cerevisiae slowed by influenza A NS1, growth recovery by OD600. 270,000 compounds, 0.4% hits; further: actives are rising curves; nearly all actives have a fitted effect of over 50% in size
#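 OD600 was taken as the measure of yeast growth restored by compound in an NS1-expressing S. cerevisiae strain. Cells had been washed out of glucose medium and diluted 1:100 into galactose -URA medium, pH 6.0.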
# RE007 growth inh = qHTS Assay for Inhibitors of the HIV-1 protein Vpr | S. pombe RE007 Vpr strain, BacTiter-Glo ATP luminescence, 24 h; control for the full effect not named in the record | Potency, µM (highest dose often 92.2 µM), inactives show at the highest dose activity change, negative = less growth | AID 651644, 2012 | 360,000 compounds, 0.21% hits; active = well fitted falling curve with a large enough effect; inconclusive = small, poorly fitted or top-dose-only effect; inactive = no such curve, though single readings can be large or run the other way;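 further: on the % scale 0 is the no-effect control and ±100 the full control effect; nearly all actives have a fitted effect of over 50% in size; the assay follows cell death caused by Vpr and the record does not say whether a fall means rescue or toxicity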
#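 Fission yeast strain RE007, carrying one chromosomally integrated HIV-1 vpr copy, was seeded at OD 0.01 in PMG+AL medium with 23 nL pinned compound. After 24 h at 30 °C and 99% humidity, viability was read by BacTiter-Glo luminescence.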
# Active calls of the source: *; ? = inconclusive; / = no result given; & = joins results of further samples; [ ] = another dose, or the depositor's remark. Unless noted, the call rests on the fitted dose curve; in most records, active means well fitted rising curve with a large enough effect; inconclusive means small, poorly fitted or top-dose-only effect; inactive means no such curve, though single readings can be large or run the other way. Potency means the concentration at half of the fitted maximal effect. The order is random; 4.7% or so of the library scored in one or more.
no.	canonical_smiles	Lassa entry inh	Cruzain inh noDet	SARS PLP yeast	2A StopGo	Cruzain Triton	Marburg entry inh	NS1 function inh	RE007 growth inh
1	CCCCOc1ccc(/C(O)=C(\C#N)c2nc3ccccc3[nH]2)cc1	17%[46.1 µM]	/	2%	9%	/	15%[46.1 µM]	1%	15%
2	CCC(CC)C(=O)Nc1nc(-c2ccc3c(c2)CCN3C(=O)C2CC2)c(C)s1	11µM*	-2%	-12%	11µM*	-7.3%	?	14%	18%
3	Cc1oc(-c2ccc(C(=O)NCc3cccc(F)c3)cc2)nc1COc1ccccc1	26%[46.1 µM]	4%	/	0%	-8.4%	/	/	/
4	COC(=O)c1cc2nc(-c3ccc(OC)cc3)cc(C(F)(F)F)n2n1	8%	5%	-1%	-14%	0.2%	3%	0%	5%
5	COc1cccc(N2CCN(C(=O)c3ccc(C)c(NC(=O)c4nsc5ccccc45)c3)CC2)c1	20%[46.1 µM]	-4%	/	?	1.4%	/	/	/
6	O=C1/C(=C\Nc2ccc(Cl)cc2)CCN1c1ncccn1	-17%	-2%	-5%	17%	-3.9%	?	0%	-7%
7	CC(C)CNC(C(=O)Nc1ccc([N+](=O)[O-])cc1Br)c1ccccc1 (stereo unspecified)	/	-4%	-50%	-20%	-6.5%	/	-12%	-6%
8	NS(=O)(=O)c1ccc(NC(=S)NNC(=O)c2ccc(Br)o2)cc1	/	/	-3%	0%	/	/	-3%	10%
9	CC(CN1CCN(C)CC1)OC(=O)c1ccc(Cl)cc1Cl (stereo unspecified)	3%	-4%	/	16%	0.8%	12%	0%	0%
10	CCn1cc(C(=O)NCc2ccccn2)c(=O)c2cc(F)c(N3CCN(C)CC3)cc21	-6%	6%	2%	11%	-6.4%	-15%&-15%&-15%	-6%	0%

# Shown screen by screen: part of the list above.
[1] CCCCOc1ccc(/C(O)=C(\C#N)c2nc3ccccc3[nH]2)cc1
[2] CCC(CC)C(=O)Nc1nc(-c2ccc3c(c2)CCN3C(=O)C2CC2)c(C)s1
[3] Cc1oc(-c2ccc(C(=O)NCc3cccc(F)c3)cc2)nc1COc1ccccc1
[4] COC(=O)c1cc2nc(-c3ccc(OC)cc3)cc(C(F)(F)F)n2n1
[5] COc1cccc(N2CCN(C(=O)c3ccc(C)c(NC(=O)c4nsc5ccccc45)c3)CC2)c1
[6] O=C1/C(=C\Nc2ccc(Cl)cc2)CCN1c1ncccn1
assay / compound	1	2	3	4	5	6
Lassa entry inh	17%[46.1 µM]	11µM*	26%[46.1 µM]	8%	20%[46.1 µM]	-17%
Cruzain inh noDet	/	-2%	4%	5%	-4%	-2%
SARS PLP yeast	2%	-12%	/	-1%	/	-5%
2A StopGo	9%	11µM*	0%	-14%	?	17%
Cruzain Triton	/	-7.3%	-8.4%	0.2%	1.4%	-3.9%
Marburg entry inh	15%[46.1 µM]	?	/	3%	/	?
NS1 function inh	1%	14%	/	0%	/	0%
RE007 growth inh	15%	18%	/	5%	/	-7%

# Other entries:
no.	canonical_smiles	Lassa entry inh	Cruzain inh noDet	SARS PLP yeast	2A StopGo	Cruzain Triton	Marburg entry inh	NS1 function inh	RE007 growth inh
11	CCOC(=O)C1=C(C)N(Cc2ccc(C(=O)O)cc2)C(=O)NC1c1ccc([N+](=O)[O-])cc1 (stereo unspecified)	1%	-6%	-7%	-2%	0.3%	8%	18%	7%
12	Cc1nc([N+](=O)[O-])cn1C(C)C	9%	/	0%	13%	/	-10%[46.1 µM]	2%	-2%
13	CCOC(=O)CN/C=C(\C#N)c1ccc(F)cc1	/	/	-1%	8%	/	/	-2%	0%
14	Cc1ccc(SCC(=O)c2sc(-c3ccccc3)nc2C)cc1	-21%	-13%	3.5µM*	-7%	-8.4%	19%[46.1 µM]	-13%	-2%
15	COc1ccc(Cl)cc1NC(=O)CCn1c(=O)oc2ccccc21	?	-9%	-6%	8%&-8%	-4.0%	-20%&-1%[46.1 µM]	4%	3%
16	COc1ccc(-c2nc(S(=O)(=O)c3ccccc3)c(N3CCOCC3)o2)cc1	-11%	4%	13%	1%	-4.2%	-9%	-11%	7%
17	O=C1CCC/C(=N/NC(=O)c2cc(NS(=O)(=O)c3cccs3)cc(NS(=O)(=O)c3cccs3)c2)C1	/	/	1%	-9%	/	/	25%	8%
18	Cc1ccc(-c2nc(CS(=O)(=O)CC(=O)N3CCN(c4cccc(C)c4C)CC3)c(C)o2)cc1	-2%[46.1 µM]	-7%	/	-10%	4.0%	?	/	/
19	COc1ccc(S(=O)(=O)N2CCC(c3nnnn3-c3ccccc3)CC2)cc1OC	?	7%	/	25µM*	4.4%	-21%[46.1 µM]	/	/
20	CC(=O)C1=NN(c2ccccc2)C2(S1)S/C(=C\c1ccccc1)C(=O)N2c1ccccc1 (stereo unspecified)	?	10µM*	3%	-18%	2.0%	?	-15%	-1%
21	CC(C)(C)c1cc(C(=O)NCCN2CCCC2)cc(C(C)(C)C)c1	?	/	-1%	-6%	/	?	8%	-8%
22	Cc1ccc(NC(=O)CCn2nc(C)cc2C)cc1	?	-9%	3%	0%	0.8%	12%	1%	13%
23	Cc1ccc(S(=O)(=O)N2CCC(C(=O)NCC3CCCCC3)CC2)cc1	-27%[46.1 µM]	/	11%	-6%	/	15%[46.1 µM]	2%	1%
24	CNc1sc(C(=O)c2cccs2)c(N)c1-c1nc2ccccc2s1	?	?	-2%	0%	-11%	-26%	0%	?
25	O=C(CNC(=O)c1n[nH]c2ccccc12)Nc1ccc(F)c(F)c1F	6%	/	1%	-8%	/	-16%	/	13%
26	O=C(COC(=O)/C=C/c1ccco1)NCc1ccccc1Cl	4%[46.1 µM]	/	-1%	16%	/	8%[46.1 µM]	/	-1%
27	Cc1ccc(S(=O)(=O)N2CCOCC2)cc1C(=O)Nc1cc(S(=O)(=O)N2CCCCC2)ccc1O	9%	/	/	-21%	/	-15%	/	0%
28	COc1ccc(OC)c(C(=O)NC(CC(N)=O)c2ccc(NCCOc3ccccc3)c([N+](=O)[O-])c2)c1 (stereo unspecified)	/	/	-3%	1%	/	/	?	-10%
29	CS(=O)(=O)c1nc(S(=O)(=O)c2ccc(Cl)cc2)c(N2CCCCC2)s1	/	/	-1%	29%	/	/	1%	5%
30	Cc1ccc(C2NC(=O)Cc3ccccc32)cc1 (stereo unspecified)	12%	-4%	10%	-1%	2.9%	2%	11%	7%
31	CC1CCC2(CC1)NC(=O)N(CC(=O)N1CC(C)CC(C)C1)C2=O (stereo unspecified)	7%	/	14%	-9%	/	3%	/	-17%
32	CCc1ccccc1OCC(=O)Nc1ccc(F)c(S(=O)(=O)N2CCOCC2)c1	-4%	/	1%	9%	/	-28%	/	-3%
33	CSc1ccccc1NC(=O)CSCc1ccccc1Br	5%	3%	-14%	27%	-8.7%	0%	-34%	-23%
34	CC(C)C(=O)NNC(=O)CSc1ncnc2c1cnn2-c1ccccc1Cl	/	/	1%	-26%	/	/	3%	4%
35	CCOC(=O)C1CCCN(c2c(C(=O)c3ccccc3)cnc3ccccc23)C1 (stereo unspecified)	-12%	/	-3%	-19%	/	?	/	18%
36	CCSc1nc2c([nH]c3ccccc32)c(=O)n1C	/	13µM*	18%	0%	4.4%	/	3%	-20%
37	O=C(CN1c2cccc3cccc(c23)S1(=O)=O)N1CCOCC1	14%	-24%	-1%	8%	-1.4%	4%	8%	15%
38	CCCNC(=O)Cn1cnc2sc(C(=O)Nc3cc(OC)c(OC)c(OC)c3)c(C)c2c1=O	-2%	24%	5%	7%	-6.2%	?	0%	7%
39	CCOc1ccccc1NC(=O)c1ccc(CN2CCc3ccccc3C2)cc1	3%	/	-6%	-11%	/	3%	-18%	-4%
40	CC(C)CN(CC(C)C)S(=O)(=O)c1cc([N+](=O)[O-])ccc1N1CCCCCC1	0%	-17%	-9%	10%	5.0%	?	24%	7%
41	CCOC(=O)N1CCN(C(=O)c2ccc3nc(C)sc3c2)CC1	9%	9%	7%	3%	1.8%	-2%[46.1 µM]	-1%	22%
42	COc1ccc(N2CCN(C(=O)CCc3ccccc3)CC2)cc1	/	/	0%	24%	/	/	-7%	7%
43	COc1ccc(C2C(C(=O)N3CCOCC3)CCC(=O)N2c2ccc(OC)cc2)cc1 (stereo unspecified)	4%	-5%	4%	7%	0.8%	7%	2%	12%
44	CC1CCCCC1NS(=O)(=O)CCNC(=O)c1ccc2c(c1)OCO2 (stereo unspecified)	-26%	/	1%	8%	/	-13%	/	7%
45	Cc1ccc(-n2c(C)nc3oc4ccccc4c(=O)c3c2=O)cc1	?	0%	-40%	41%[activator]	-9.6%	?	8%	6%
46	O=C(COC(=O)c1ccc(S(=O)(=O)NCc2ccco2)cc1)Nc1ncc(Cl)cc1Cl	-6%	-11%	5%	11%	-1.8%	-14%	6%	?
47	Nc1c(Br)cc(Br)c2c1C(=O)c1c(cccc1S(=O)(=O)O)C2=O	-11%[46.1 µM]	/	/	-17%	/	20%[46.1 µM]	/	10%
48	CCN(CC)S(=O)(=O)c1cc(NC(=O)COC(=O)CCC(=O)c2ccc(F)cc2)ccc1C	?	?	18%	-15%	-9.1%	19%	-13%	/
49	O=C(c1cccs1)N1CCn2c1nc1ccccc12	17%	-2%	?	5%	-3.3%	5%	-67%	-7%
50	COc1cc(OC)c(-c2nc3cnccc3n2C)cc1OC	?	10%	2%	11%	2.2%	-12%	-7%	-1%

# Source: PubChem
